Screening results deposited in PubChem by several laboratories.
Hck Nef HTS: inhibitors of Nef-activated human Hck kinase, primary screen, biochemical, Z-Lyte FRET, 384-well, Hck-YEEI; Recombinant Hck-YEEI plus Nef, Z-Lyte FRET kinase assay; 0.68% of 220,000 active; inhibition, % at 20 µM; AID 463187, 2010;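 active = Hck-Nef kinase inhibition above about 50%, limit read from the data; inactive = inhibition below that limit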;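 note: 0% = DMSO with Hck plus Nef and 100% = Hck alone without Nef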
L929 necroptosis: inhibitors of zVAD-triggered necroptosis, primary screen, L929 cells; L929 zVAD necroptosis rescue, ATP luminescence, 24 h; with zVAD 60 µM; viability rescue, % at 10 µM; 0.38% of 220,000 active; AID 1377, 2008;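 active = activation, scaled between plate controls, above about 75%, limit read from the data; inactive = activation under that limit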;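 note: 0% = zVAD with DMSO and 100% = DMSO alone without zVAD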
KCC2 mod: KCC2 cotransporter modulators, thallium flux, primary screen, cell-based, HEK293 KCC2, FluoZin-2 fluorescence, MLSMR; 2.2% of 190,000 active; Solute carrier family 12 member 5 (Homo sapiens), Q9H2X9; KCC2 cells, thallium flux FluoZin-2 fluorescence; B-score of Tl+ flux slope (higher = more flux/activation; lower = inhibition) at 10 µM;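 active = thallium flux slope and its plate-corrected score both differing from the plate sample mean at a set confidence after two filtering rounds, in either direction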;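 note: slope of fluorescence scaled to starting intensity during 10 to 20 s after thallium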
KLK5 inh: human KLK5 protease inhibitors, primary screen, biochemical, 1536-well | recombinant hK5, fluorogenic AMC substrate cleavage | inhibition, % at 5 µM | 0.59% of 210,000 active | AID 873, 2007;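 active = inhibition of 40% or more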;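 note: 0% = enzyme controls without compound and 100% = no-enzyme blanks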
Target sequence (Q9Y337 67-293 limits assumed): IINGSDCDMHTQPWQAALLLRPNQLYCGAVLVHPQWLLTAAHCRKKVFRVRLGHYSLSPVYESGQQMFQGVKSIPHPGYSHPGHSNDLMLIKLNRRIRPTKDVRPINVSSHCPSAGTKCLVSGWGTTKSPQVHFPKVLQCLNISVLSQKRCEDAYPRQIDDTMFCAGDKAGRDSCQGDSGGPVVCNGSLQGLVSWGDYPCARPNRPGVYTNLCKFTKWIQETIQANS
Rad51 HR inh: human RAD51 strand exchange inhibitors, primary screen, biochemical, fluorescence. DNA repair protein RAD51 homolog 1 (Homo sapiens), Q06609. hRad51 DNA strand exchange, fluorescence dequenching. inhibition, % at 10 µM. 0.085% of 200,000 active. AID 1385, 2008;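 active = inhibition above 40% at the single screening dose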;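 note: 0% = DMSO control wells and 100% = blanks with heterologous ssDNA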
Target sequence (Q06609 whole entry, looked up): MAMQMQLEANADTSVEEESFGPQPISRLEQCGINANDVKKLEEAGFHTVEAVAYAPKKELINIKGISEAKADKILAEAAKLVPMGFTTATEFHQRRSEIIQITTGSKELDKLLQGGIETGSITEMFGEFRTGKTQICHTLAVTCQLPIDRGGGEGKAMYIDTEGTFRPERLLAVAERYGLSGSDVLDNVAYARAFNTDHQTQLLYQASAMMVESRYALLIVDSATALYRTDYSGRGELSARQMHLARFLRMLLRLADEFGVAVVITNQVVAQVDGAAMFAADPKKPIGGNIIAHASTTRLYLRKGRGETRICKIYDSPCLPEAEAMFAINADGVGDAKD
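Read-out basis: percent inhibition relative to plate controls and blanks / Assay system: human Rad51 nucleoprotein filaments preassembled on unlabelled ssDNA / Timing: filaments 15 min 37 °C, then compound 30 min / Control set: per-plate controls and blanks / Technique: fluorescence dequenching at 485/520 nm / Compound: 10 µM final, single point / Also added: Fluorescein- and BHQ1-tagged 47-mer duplex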
TNF necrop inh: inhibitors of TNF-alpha triggered necroptosis, primary screen, cell-based, Jurkat FADD-/-, single concentration; activation (protection from cell death), % at 10 µM; 0.068% of 220,000 active; Jurkat FADD-/- TNF necroptosis rescue, ATP luminescence, 24 h; 0 = TNF only, 100 = no-TNF cells;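 active = activation, meaning protection from cell death, of at least 50% relative to plate controls; inactive = activation below 50%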;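 note: necroptosis triggered by 40 ng/mL TNF-alpha added together with compound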
Thrombin inh: human alpha-thrombin inhibitors, primary screen, counter-screen for coagulation protease inhibitor project, biochemical, 1536-well, fluorogenic AMC substrate. Prothrombin (Homo sapiens), P00734. Boc-VPR-AMC fluorogenic substrate cleavage. inhibition, % at 5 µM. 0.26% of 220,000 active. AID 1046, 2008;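 active = inhibition at or above 40%; inactive = inhibition below 40%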;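 note: 0% = enzyme with no compound and 100% = wells without enzyme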
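Assay system: human alpha-thrombin enzyme. Reagent: Boc-VPR-AMC substrate, 15 µM final. Compound dosing: one concentration per compound, 5 µM, with 0.2% DMSO. Incubation: room-temperature reaction. Technique: AMC fluorescence, 355/460 nm. Measure: % inhibition relative to enzyme controls and enzyme-free blanks.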
* = called active by the depositor; i = inactive; · = not tested or not shown. This is a subset (hit frequency here may not be typical).

compound	Hck Nef HTS	L929 necroptosis	KCC2 mod	KLK5 inh	Rad51 HR inh	TNF necrop inh	Thrombin inh
O=C(Cn1nc(-c2ccccc2)nc1-c1ccccc1)OC1CCCCC1	-6	1.2	-0.31	-4	-3	-1.5	1
Cc1cc(OCc2nc(-c3ccc(NC(=O)c4cccnc4)cc3)no2)ccc1Cl	5	23	1.1	2	7	-0.2	3
Nc1nncn1C(=O)c1ccccc1Cl	0	-0.8	0.058	2	4	-2.8	11
COc1ccc(C(=O)NNC(=O)OC(C)(C)C)cc1	14	-0.1	0.31	1	-4	0.9	0
Cc1ccc2cc(C#N)c(NCCNC(=S)NCCCN(C)C)nc2c1C	19	12	-0.78	-3	22	-0.4	3
CCn1c(CNC(=O)c2ccc(OC)cc2)nnc1SC	0	0.4	-0.13	-5	-1	0.4	-6
O=C(c1cn(-c2ccccc2)nc1-c1ccccc1)n1nnc2ccccc21	-1	-0.2	0.12	-1	0	-16	0
CCCCOC(=O)c1cc(Cl)c(O)c(OC)c1	5	1.6	-0.85	11	-8	1.3	-4
COC(=O)CCCNC(=O)c1ccccn1	24	2.5	0.057	-3	2	1.1	-1
CCOC(=O)N/N=C\c1ccc(OC(=O)c2ccco2)cc1	10	0.4	-0.012	0	4	0.3	-3
COc1cccc(C(=O)Oc2ccc3c(C)cc(=O)oc3c2C(C)=O)c1	12	0.6	0.63	-4	·	-1.4	3
COc1ccc2[nH]c(C)c(C(=O)CN3CC(C)OC(C)C3)c2c1 (centres undefined)	-2	0.9	·	1	·	1.2	0
Cc1cc(NC(=O)CSc2nnc(C3CC3)n2Cc2ccccc2)no1	0	1.1	0.086	6	3	1.3	-1
C/C(Cc1ccccc1)=N\NC(=O)CNC(=O)Cc1ccc(Cl)cc1	19	0.6	-0.081	-5	4	1.3	12
Cc1c(C)c2ccc(OCc3ccc(C(=O)O)o3)c(C)c2oc1=O	0	-0.1	-0.22	-16	-4	0.7	-2
O=C(CSc1nnc2c3c4c(sc3ncn12)CCCC4)NCc1ccco1	1	-0.3	·	-16	-3	0.2	-13
COC(=O)c1ccc(C2/C(=C(\O)c3ccc4c(c3)OCCO4)C(=O)C(=O)N2CCCN(C)C)cc1 (centres undefined)	0	1.9	-0.067	0	-9	0.6	1
CCOC(=O)N1CCN(C(=S)NC2CCCCC2)CC1	2	3.4	-0.45	-7	1	2.0	-9
COc1ccc(OC)c(-n2c(-c3cc(-c4ccc(F)cc4)n[nH]3)n[nH]c2=S)c1	3	-0.2	0.12	-19	-2	-5.9	2
N#Cc1c(NC(=S)NC(=O)c2ccccc2)sc2c1CCN(CCc1ccccc1)C2	9	0.2	0.8	-20	i	2.5	-8
CCn1c(SCC(=O)c2ccc(OC)cc2)nnc1C1CC1	0	0.3	-1.9	0	1	-1.2	-7
CCOC(=O)N1CCN(C(=O)C2CCN(S(=O)(=O)c3c(C)cc(C)cc3C)CC2)CC1	1	-0.2	-0.63	-19	3	-0.5	0
O=C(NCCCNCCCNC(=O)c1ccccn1)c1ccccn1	1	1.8	·	-1	-2	1.5	-3
COc1ccccc1CNC(=O)c1cc(=O)c2ccccc2o1	21	1.3	-0.29	7	18	-1.0	1

Three entries already listed, arranged by count of non-hydrogen atoms, largest number first.
compound	Hck Nef HTS	L929 necroptosis	KCC2 mod	KLK5 inh	Rad51 HR inh	TNF necrop inh	Thrombin inh
O=C(CSc1nnc2c3c4c(sc3ncn12)CCCC4)NCc1ccco1	1	-0.3	·	-16	-3	0.2	-13
O=C(NCCCNCCCNC(=O)c1ccccn1)c1ccccn1	1	1.8	·	-1	-2	1.5	-3
CCn1c(SCC(=O)c2ccc(OC)cc2)nnc1C1CC1	0	0.3	-1.9	0	1	-1.2	-7

Carrying on.
compound	Hck Nef HTS	L929 necroptosis	KCC2 mod	KLK5 inh	Rad51 HR inh	TNF necrop inh	Thrombin inh
CCn1c2ccccc2c2cc(NC(=O)COC(=O)c3ccccc3F)ccc21	4	1.4	-2.7	-11	22	-0.2	-1
COCC(C)Nc1ncnc2c1cnn2-c1ccc(Cl)cc1 (centres undefined)	2	-0.1	0.87	-7	-10	0.5	0
COC(=O)c1cc2ccsc2n1Cc1cccc(F)c1	3	-0.2	0.71	-18	11	0.8	-9
Clc1nn2cnnc2c2ccccc12	13	64	0.44	1	8	-0.8	-4
CC(C)C1Cc2c(sc(NC(=S)NC(=O)c3ccccc3)c2C#N)CO1 (centres undefined)	2	2.9	1.1	1	1	1.8	1
COC(=O)C(OC(=O)c1ccc(OC)cc1)C(=O)OC	11	-0.1	-0.3	-7	0	0.5	0
CCOC(=O)N1CCN(C(=O)C2CCN(S(=O)(=O)c3cc(Cl)ccc3Cl)CC2)CC1	2	0.2	-0.48	-8	-2	0.0	-3
Cc1cccc(N2CCN(C(=O)c3cc4c(=O)n(C)c5ccccc5c4n3C)CC2C)c1 (centres undefined)	7	1.3	-0.95	41*	-7	-9.5	25
Cc1nc2ccc(C(=O)O)cc2nc1C	1	0.2	0.099	-13	·	1.8	-1
COc1ccc(NC(=O)c2sc(Cl)nc2-c2ccccc2)cc1	2	0.1	-0.061	-3	10	-1.8	-6
COC(=O)C1=NN(c2ccc(OC)cc2)C2C(=O)N(c3ccccc3OC)C(=O)C12 (centres undefined)	4	0.7	-0.049	4	-2	0.8	-2
CCn1c(COc2ccc(C)cc2)nnc1SCC(=O)Nc1ccc(S(N)(=O)=O)cc1	-1	0.0	·	-2	·	-1.1	-4
CN1CCN(c2oc(/C=C/c3ccccc3)nc2C#N)CC1	32	0.6	-2.6	-16	1	3.3	-2
O=C(OC1CCOC1=O)c1cccc(S(=O)(=O)Nc2cccc(Cl)c2)c1 (centres undefined)	7	0.1	-0.39	-20	4	1.2	-1
CCn1c2ccccc2c2cc(NC(=O)COC(=O)C3CCC(=O)N3)ccc21 (centres undefined)	0	8.1	-1.1	-15	-1	-1.2	-1
N#CC(c1ccccn1)(c1ncc(C(F)(F)F)cc1Cl)N1CCOCC1 (centres undefined)	1	-0.1	·	-3	-6	-1.3	-2
CCc1ccc(NCc2cc3c(C)nn(-c4ccccc4)c3[nH]c2=O)cc1	-2	0.8	1	-19	0	-0.7	0
COc1ccc(S(=O)(=O)n2nc(OC(=O)c3ccc(C)cc3)cc2N)cc1	-16	2.4	0.28	6	-2	-1.2	2
Cc1cccc(NC(=O)CSc2nc(C)c(Cc3ccccc3)c(=O)[nH]2)c1	25	3.5	-2.9	-4	-8	1.0	3
O=C(CNS(=O)(=O)c1ccccc1)OCC(=O)c1ccc([N+](=O)[O-])cc1	11	0.1	0.85	-13	·	-8.2	-9
Cc1c(C(=O)Nc2ccc3c(c2)OCO3)sc2ncn(CC(=O)N3CC(C)CC(C)C3)c(=O)c12 (centres undefined)	0	0.2	0.17	0	-1	0.0	-3
CCc1ccc(N2C(=O)C3ON(c4ccccc4)C(c4ccco4)C3C2=O)cc1 (centres undefined)	1	0.3	-1.5	-7	13	-0.3	6
Cc1cccc(N2CCN(C(=O)c3csc4ccccc34)CC2C)c1 (centres undefined)	3	0.3	-1.1	-13	-5	1.3	-6
O=C(C1COc2ccccc2O1)N1CCCC1 (centres undefined)	1	-0.6	-0.46	-13	6	2.1	2
CCc1ccc(NC(=S)N(CCCN2CCOCC2)Cc2ccccn2)cc1	0	0.6	0.26	-20	-13	2.4	-2
COc1ccccc1N1C(=O)C2C(C(=O)c3ccccc3)=NN(c3ccc(C)cc3)C2C1=O (centres undefined)	-182	0.6	0.38	-2	·	-1.6	-6
CCOc1ccc(Cc2nc(N)nc(N)n2)cc1	1	-0.2	-0.15	7	7	-0.7	2
O=C(/C=C/Nc1ccccc1OC(F)(F)F)C(F)(F)F	0	-0.3	0.9	-4	2	-1.2	5
COC(=O)c1ccc(OC(=O)c2ccco2)cc1	-2	-0.2	·	11	-8	-2.2	2
Cc1ccc(C2/C(=C(/O)c3ccc(Br)cc3)C(=O)C(=O)N2Cc2ccco2)o1 (centres undefined)	2	-0.4	-1.4	-5	-3	-6.4	-5
Nc1ccc(C(=O)OC2CCOC2=O)cc1[N+](=O)[O-] (centres undefined)	7	·	1.2	-8	-36	0.6	3
O=C(N/N=C/c1ccc2c(c1)OCO2)c1ccccn1	0	0.2	-1.7	0	-8	-8.5	-4
Nc1nc(C(=O)N2CCOCC2)nn1S(=O)(=O)c1ccc(Cl)cc1	0	-0.1	0.15	-3	-3	-1.4	1
O=C1OC(c2ccc(Cl)cc2)=N/C1=C\C=C\c1ccco1	14	2.9	0.17	3	-2	-1.5	-20
Oc1oc(-c2ccco2)nc1C=Nc1ccccc1	-2	0.8	-0.44	9	-5	-2.2	12
COCCCn1c(C)nnc1SCC(=O)NCc1ccco1	-4	-0.4	-0.076	-10	4	-2.1	-1
COc1ccc(/C=C/C2=Nc3ccccc3NC(C)(C)C2)cc1OC	17	-0.6	-0.6	2	-4	-1.1	-1
CN(C)S(=O)(=O)c1cccc(NC(=O)COC(=O)/C=C/c2ccc3c(c2)OCO3)c1	15	33	-0.028	-3	5	0.1	-7
CCOc1ccccc1NC(=O)c1nc[nH]c1C(=O)Nc1ccccc1OCC	-1	0.6	0.71	-63	-2	-1.0	0
O=c1cc(CN2CCN(c3ccccc3)CC2)c2c(ccc3ccccc32)o1	0	-0.2	-1.1	3	-1	0.3	-6
CC(C)(C)c1ccc(C(=O)NC(=S)Nc2sc3c(c2C#N)CCC3)cc1	-1	2.9	0.15	-4	2	4.0	-4
CCCCn1nnnc1NCc1cc(OC)c(OC)cc1OC	1	0.6	4.9*	3	1	-3.5	-7
COc1ccc(OC)c(CN(CCCN2CCOCC2)S(=O)(=O)c2ccc(NC(C)=O)cc2)c1	2	0.0	0.045	-15	1	-1.7	-1
CCOC(=O)c1cnc(C(C)(C)C)[nH]c1=O	10	0.4	1.2	5	-10	0.5	3
CC(=O)COc1ccccc1OC(=O)c1ccco1	9	-0.2	0.63	-6	0	-0.2	-5
COc1ccc(C(C)=O)c(OC(=O)c2ccco2)c1	-1	0.1	0.52	5	4	-0.5	14
COc1ccc(CCNC(=O)CCC(=O)Nc2nnc(C(C)C)s2)cc1OC	3	0.0	0.81	-14	1	0.9	-9
CCn1c2ccccc2c2cc(NC(=O)COC(=O)c3ccccc3O)ccc21	0	13	0.76	-24	-6	0.5	-1
COc1ccccc1NC(=O)C1=C(C)Nc2nnnn2C1c1cccc(C)c1 (centres undefined)	1	-0.2	·	-13	3	-1.2	-5
CCOC(=O)c1cc(OC(=O)c2cccs2)n(-c2ccccc2)n1	3	0.6	·	-11	-23	-1.9	-4
Cc1cccc(/C=N/n2c(-c3ccncc3)n[nH]c2=S)c1	2	5.1	0.2	-5	9	1.6	-10
O=[N+]([O-])c1ccc(S(=O)(=O)Nc2nc3ccccc3nc2Nc2ccccc2)cc1	13	1.3	-0.13	-4	-1	0.1	-21
CC(NC(=O)CCc1ccc(S(=O)(=O)NC2CCCCC2)cc1)c1ccccc1 (centres undefined)	4	-0.1	-0.031	-29	6	-0.9	-9
